MgrA DNA FP – S. aureus MgrA-DNA binding modulation. 0.13% of 84,000 active. inhibition, %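 (about 10 µg/mL by stock and volumes)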. fluorescence polarization;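 active means above 50% in either of two replicates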;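 further: 0% = protein plus DNA without compound and 100% = DNA alone without protein; higher means less MgrA bound to DNA so lower polarization; one replicate is shown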
S aureus helic – S. aureus DNA helicase inhibition. purified S. aureus helicase, fluorescence unwinding assay; about half of the hits fall short of the stated cut. inhibition, %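 (tested at about 80 µM)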. AID 485395. 0.05% of 120,000 active;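 active means both duplicates at 50% or more, or one of them with a favoured structure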;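 further: 0% = mean of negative control wells and 100% = mean of positive control wells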
Active calls of the source: *; · = not tested or not shown.

Order of values – MgrA DNA FP	S aureus helic
1	CCOC(=O)C1C(=O)C=C(c2ccco2)CC1c1ccc(OC)cc1 (stereo unspecified)
    ·	29
2	CC(C)(C)NC(=S)Nc1cc(C(F)(F)F)cc(C(F)(F)F)c1
    1.9	·
3	Cc1nc(SCC(=O)Nc2c(C)nn(C)c2C)c2cnn(-c3ccccc3)c2n1
    -1.0	-4
4	O=C(CCCc1c[nH]c2ccccc12)Nc1ccccc1N1CCOCC1
    ·	-1
5	Cc1ccc(NC(=O)C2CC(=O)N=C(N)S2)cc1C (stereo unspecified)
    -0.6	-8
6	Cc1cc(NC(=O)C(F)(F)C2(F)OC(F)(F)C(F)(F)C2(F)F)no1 (stereo unspecified)
    ·	-18
7	Cc1nn2c(-c3ccc(NC(=O)c4ccccc4Cl)cc3)nnc2c2ccccc12
    -0.4	11
8	O=C(Nc1cc2ccccc2s1)NC1Cc2ccccc2C1
    -0.1	·
9	N#CC1=C(SCC(N)=O)NC(=O)CC1c1ccccc1Cl (stereo unspecified)
    ·	18
10	NC(=O)CSc1nc2c(c(=O)n1-c1ccccc1)C1=C(CCC1)C2
    -0.6	0
11	Cc1ccccc1NC(=O)CSc1ncn[nH]1
    ·	13
12	COc1ccc(N2CCN(C(=O)CN3CCN(S(=O)(=O)c4ccc(C(C)(C)C)cc4)CC3)CC2)cc1
    ·	8
13	COc1nc(-c2ccccc2)cc(-c2ccccc2)c1C#N
    -1.8	8
14	CC(C)(CC(=O)O)Sc1ccc(Cl)cc1
    1.3	·
15	Cc1ccc(OCNC(=O)N2CCOCC2)cc1
    ·	10
16	COCc1cc(OC)nc(-c2csc(C)n2)n1
    -0.5	·
17	COc1ccc(CCNC(=O)c2ccn[nH]2)cc1OC
    ·	12
18	Cc1ccc(NCC(O)Cn2c(C)c(C)c3ccccc32)cc1 (stereo unspecified)
    ·	-19
19	O=C(CSc1nc2nccnc2c(=O)n1Cc1ccccc1)Nc1ccccc1C(F)(F)F
    -0.1	-1
20	CC1CCCCN1c1ncccc1C(=O)NC1CCCC1 (stereo unspecified)
    -2.8	2
21	O=S(=O)(NCCc1ccccn1)c1ccc2c(c1)OCCCO2
    -2.0	·
22	N#Cc1ccc(C(=O)OCc2ccccc2)cc1
    -1.4	-8
23	O=C(NCc1ccc2c(c1)OCO2)C1(S(=O)(=O)c2ccc(Cl)cc2)CC1
    2.6	3
24	Nc1ccc(CCC(=O)NC2CC2)cc1
    6.4	6
25	Cc1nccn1Cc1ccc(C(=O)O)cc1
    -2.8	-6
26	COc1cc2c(cc1OC)CN(C(C)C(=O)Nc1cccc(C#N)c1)CC2 (stereo unspecified)
    ·	-10
27	CC(C)(C)c1cc(NC(=O)COC(=O)c2ccc(Br)o2)n(-c2ccccc2)n1
    ·	11
28	Cc1cc(C)c(OCCn2ccnc2)c(C)c1
    1.2	-5
29	O=C(Cc1cccc(C(F)(F)F)c1)Nc1ccccc1
    -0.7	6
30	O=C(O)C1CCN(C(=O)CSc2ncc(C(F)(F)F)cc2Cl)CC1
    ·	6
31	COc1ccc(CN2C(=O)CN(C)C2=S)cc1
    ·	13
32	Cc1ccc(NC(=O)Cn2cc(/C=C3/NC(=O)NC3=O)c3ccccc32)cc1
    1.2	-1
33	c1coc(-c2cc(-c3nc4ccccc4s3)c3ccccc3n2)c1
    ·	7
34	O=C(COn1nnc2ccc(Cl)cc21)NCc1ccco1
    ·	9
35	CC(C)(C)S(=O)(=O)/C(C#N)=C/N1CCOCC1
    -1.0	·
36	CCOc1cc(OCC)c2c(-c3ccccc3)cc(=O)oc2c1
    ·	16
37	O=C(O)c1cccc2cc[nH]c12
    -3.9	5
38	CCN(CC)c1ccc(NC(=O)CN(C)Cc2cccs2)cc1
    ·	-6
39	O=C(O)C12CC3CC(C1)CC(C(F)(F)C(F)C(F)(F)F)(C3)C2 (stereo unspecified)
    -2.9	·
40	CC(C)(C)c1nnc2sc(COc3ccc(Br)cc3)nn12
    ·	-16
41	O=C(COC(=O)c1ccc2ccccc2n1)NC1CCCC1
    ·	-25
42	c1nc(Nc2ccc3c(c2)OCO3)c2c3c(sc2n1)CCC3
    ·	-6
43	Cn1c(=O)n(C)c2cc(NC(=O)C3COc4ccccc4O3)ccc21 (stereo unspecified)
    -1.7	3
44	COc1c(Br)cc(C)c2c1CCC2
    -3.2	·
45	COCc1nnc(NC(=O)C2CCN(C(=O)c3ccco3)CC2)s1
    14	-8
46	CCOC(=O)C1CCCN(c2c3c(nc4cc(-c5ccc(C)cc5)nn24)CCC3)C1 (stereo unspecified)
    -2.1	1
47	O=C(Cc1cccc(C(F)(F)F)c1)OCN1C(=O)c2ccccc2C1=O
    ·	5
48	CCOC(=O)C1CCN(C(C)C(=O)Nc2ccc(C(C)C)cc2)CC1 (stereo unspecified)
    ·	0
49	CN(Cc1nc(-c2ccccc2)no1)C(=O)Nc1ccccc1
    0.3	19
50	COC(=O)CCC(=O)c1c(C)[nH]c2ccccc12
    0.5	-16
51	CCOC(=O)N1CCN(C(=O)CCn2c(=S)[nH]c3cc(OCC)c(OCC)cc3c2=O)CC1
    ·	2
52	Cc1cc(-c2nn(C)c(=O)c3ccccc23)cc(C)c1OC(=O)c1ccc(C(F)(F)F)cc1
    1.2	·
53	O=C(OCc1nc2ccccc2s1)c1cccc(-n2cnnn2)c1
    ·	4
54	O=C(OCc1c(Cl)nc2sccn12)c1cc2c(s1)CCCC2
    ·	1
55	O=C(CN1CCN(S(=O)(=O)c2ccc3c(c2)OCCCO3)CC1)N1CCCc2ccccc21
    ·	2
56	O=c1c2cc3c(=O)n(-c4ccccn4)c(=O)c3cc2c(=O)n1-c1ccccn1
    1.0	-9
57	O=C(/C=C(\O)c1ccc(Br)cc1)C(=O)Nc1ccccc1
    4.5	·
58	C=CCn1cnc2c(c1=O)c1nc3ccccc3nc1n2CCC1=CCCCC1
    ·	1
59	CC(C)NS(=O)(=O)NC(C)C
    ·	-10
60	O=c1oc(-c2ccccc2F)nc2sc3c(c12)CCCCC3
    1.0	·

Further records.
Order of values – MgrA DNA FP	S aureus helic
61	CCn1cc(C(=O)O)c(=O)c2cc(Cl)ccc21
    -0.3	·
62	O=C1OCCC1Sc1ncc(C(F)(F)F)cc1Cl (stereo unspecified)
    ·	-5
63	CC(C)CC(=O)N1CCC(c2c[nH]c3ccccc23)(c2c[nH]c3ccccc23)CC1
    ·	0
64	NC1=C(c2nc3ccccc3s2)CC(c2ccccc2)O1 (stereo unspecified)
    ·	-79
65	COC(=O)C1=NOC2C(=O)N(c3ccc(C)cc3)C(=O)C12 (stereo unspecified)
    ·	36
66	COc1ccc(N(Cc2nc3ccccc3s2)S(=O)(=O)c2cccs2)cc1
    ·	-22
67	O=C(NC1=NCCS1)C1CCN(S(=O)(=O)c2ccc3c(c2)OCCCO3)CC1
    ·	-5
68	Cc1nc([N+](=O)[O-])cn1CC(=O)c1ccccc1
    3.2	·
69	Nc1ncnc2c1nc(SCCC(=O)O)n2Cc1ccccc1
    ·	11
70	CC1Cc2ccccc2N1C(=O)CN(C)S(=O)(=O)c1cccc2cccnc12 (stereo unspecified)
    ·	8
71	CC1(C)CC(=O)C(C=NC(Cc2ccccc2)C(=O)O)=C(O)C1 (stereo unspecified)
    ·	-11
72	CC(C(=O)O)N1C(=O)C2C3C=CC(C3)C2C1=O (stereo unspecified)
    ·	3
73	C=C(C)COc1ccc2oc(-c3ccccc3)c(C(=O)O)c2c1
    ·	11
74	CCN(C(=O)c1cccnc1OCC(F)(F)F)c1ccc(Cl)cc1
    -3.0	·
75	C=CCn1c(SC(C#N)Cc2ccc(C)cc2)nnc1C1COc2ccccc2O1 (stereo unspecified)
    ·	8
76	CCOC(=O)c1c(C)n(-c2ccccc2C)c2ccc(OC(=O)c3ccccc3)cc12
    3.5	·
77	Cc1cccc(C(C)C)c1NC(=O)COC(=O)c1cccnc1Cl
    0.1	-2
78	CC(C)c1ccc(Nc2cc(=O)[nH]n2C)cc1
    -0.8	·
79	O=C(c1ccc2c(Cl)c3c(nc2c1)CCCC3)N1CC=C(c2ccccc2)CC1
    5.6	11
80	COc1ccc(NC(=O)CC2SC(N)=NC2=O)cc1 (stereo unspecified)
    ·	7
81	Cc1cc2nc(-n3nnc4ccccc43)c3ccccc3n2n1
    ·	-4
82	COC(=O)CSc1nc(N)nc(C)c1Br
    ·	-25
83	C=CCn1c(C)c(C(=O)OC)sc1=Nc1ccccc1
    ·	-2
84	CC(C)CCNC(=O)c1c[nH]c2ccc(S(=O)(=O)N3CCc4ccccc43)cc2c1=O
    0.3	-12
85	COc1ccc(C(CC(=O)c2ccco2)Sc2cccc3cccnc23)cc1OC (stereo unspecified)
    7.5	8
86	CNC(=S)NNc1cc(C)c2c(C)nn(C)c2n1
    ·	19
87	NC(=O)c1ccc(NC(=O)c2cc3c(s2)CCC3)cc1
    -0.6	-5
88	CCNc1nc2ccccc2s1
    -0.5	6
89	O=[N+]([O-])c1ccc(C2N(Cc3ccccc3)CCC3CCCCN32)cc1 (stereo unspecified)
    -4.2	·
90	Nn1c(CCn2c3ccccc3c3ccccc32)n[nH]c1=S
    ·	8
91	S=c1[nH]c(=S)c2cnc(N3CCOCC3)nc2[nH]1
    1.9	·
92	O=C(CSc1nc2scc(-c3cccs3)c2c(=O)n1-c1ccccc1)NCc1ccco1
    -0.2	0
93	CC1=CCC(C(C)(C)NC(=O)c2ccccc2)C/C1=N/O (stereo unspecified)
    1.1	-4
94	CCOC(=O)C1CCN(C(=O)COc2ccccc2)CC1
    -3.9	7
95	COC(=O)Nc1sc(-c2ccccc2)nc1-c1ccccc1
    ·	-5
96	C=CCSc1ncnc2sc3c(c12)CCCC3
    ·	5
97	COc1ccc(CNC(=O)COC(=O)c2ccccc2NS(C)(=O)=O)cc1OC
    ·	-4
98	Cc1ccc(N2C=NNC(=O)C2)cc1C
    ·	26
99	CCOc1ccc(-n2ccnc2SCC(=O)Nc2ccccc2)cc1
    ·	8
100	Clc1ccccc1CSc1cnc2ccccc2n1
    3.8	·
101	COc1ccccc1CC(=O)NC1CCCCC1
    ·	-7
102	COC(=O)c1cc(COC(=O)CCc2nc3ccccc3s2)oc1C
    ·	-1
103	CC(C)C(O)(C#CCN1CCCCC1)C(C)C
    0.3	2
104	C=CCn1cnnc1SCC(=O)c1ccccc1OC
    ·	-9
105	N#CSCC(=O)c1ccc(F)c(F)c1
    -5.8	·
106	O=c1[nH]nc(SCc2ccccc2)n1-c1cccc(Cl)c1
    -2.3	·
107	O=S1(=O)CCC(NS(=O)(=O)/C=C/c2ccccc2)C1 (stereo unspecified)
    ·	-18
108	CCCC(C#CCN1CCCCC1)OC(C)=O (stereo unspecified)
    -0.8	10
109	CC(C)c1nc2ccccc2n1C(C)C(=O)O (stereo unspecified)
    -8.6	-6
110	CC(Cc1nnc(SCC(=O)c2ccc[nH]2)n1N)c1ccccc1 (stereo unspecified)
    ·	10
111	Cc1ccc2oc(=O)c3cnn(CC(=O)NCCN(C)C)c3c2c1
    ·	9
112	Cn1nccc1Nc1ccc(OC(=O)c2ccnn2C)cc1
    -0.7	3
113	Cc1c(NC(=O)CCN2C(=O)/C(=C/c3ccccc3Cl)SC2=S)c(=O)n(-c2ccccc2)n1C
    -2.2	·
114	Cc1c(Cl)cccc1N1CC(C)(C)C1=O
    0.1	·
115	O=C1c2oc3ccccc3c(=O)c2C(c2ccc(F)cc2)N1c1ccccn1 (stereo unspecified)
    ·	-24
116	O=C1OCc2cccc3cccc(c23)S(=O)c2cccc3cccc1c23 (stereo unspecified)
    ·	-12
117	Cn1nc(CC(=O)NCCN2C(=O)CSC2=O)c2ccccc2c1=O
    ·	4
118	CS(=O)(=O)c1ccc2nc(NC(=O)CN3C(=O)c4ccccc4C3=O)sc2c1
    -6.8	3
119	CSc1sc(C2=NNC(O)(C(F)(F)F)C2)c2c1C(=O)CCC2(C)C (stereo unspecified)
    -0.7	·
120	CCN(C(=O)Cn1cc(C(=O)c2cccs2)c2ccccc21)c1ccccc1
    ·	-6

Reprinted from the part before: 4 entries, followed by the next part.
Order of values – MgrA DNA FP	S aureus helic
117	Cn1nc(CC(=O)NCCN2C(=O)CSC2=O)c2ccccc2c1=O
    ·	4
118	CS(=O)(=O)c1ccc2nc(NC(=O)CN3C(=O)c4ccccc4C3=O)sc2c1
    -6.8	3
119	CSc1sc(C2=NNC(O)(C(F)(F)F)C2)c2c1C(=O)CCC2(C)C (stereo unspecified)
    -0.7	·
120	CCN(C(=O)Cn1cc(C(=O)c2cccs2)c2ccccc21)c1ccccc1
    ·	-6
121	CN(C)S(=O)(=O)c1ccc(N2CCCC2)c(C(=O)OCn2nnc3ccccc3c2=O)c1
    ·	-10
122	COC(=O)c1ccc(/C=N\NC(=O)CNc2ccc(C)cc2)cc1
    -0.6	10
123	COc1cccc(CN(Cc2nnnn2C2CCCCC2)CC2CCCO2)c1 (stereo unspecified)
    0.2	6
124	CC(C)(C)c1ccc(NC(=O)NNc2ncccc2C#N)cc1
    ·	11
125	COc1ccc(NC(=O)CN(C)c2nc3cc(C)nn3c3ccccc23)cc1
    ·	-4
126	CCOC(=O)c1ccc(N2CCCC2)cc1
    -2.0	15
127	Cc1cc(C)n2nc(CC#N)c(C#N)c2n1
    0.0	·
128	O=C(COc1ccccc1)N/N=C/c1ccccc1
    1.7	-1
129	COc1cccc(NC(=O)CSc2ncnc3ccccc23)c1
    -2.7	12
130	CC(C)(C)C(=O)Nc1noc2ccccc12
    0.2	13
131	O=C(CSc1ncnc2c1oc1ccccc12)c1ccc(Cl)cc1
    ·	-7
132	CC(=O)N1CCc2cc(NC(=S)NCc3cccs3)ccc21
    -1.6	·
133	COc1ccc(C(CNC(=O)COc2ccccc2)N2CCCCC2)cc1 (stereo unspecified)
    ·	-4
134	COc1ccc(NC(=O)COc2cccc3c2CCN(C)C3=O)cc1
    ·	1
135	Cc1ccccc1-c1n[nH]c(=S)o1
    ·	4
136	CCOC(=O)c1ccc(NC(=S)NC2CCS(=O)(=O)C2)cc1 (stereo unspecified)
    ·	6

Three entries from above, ordered by formula weight, largest number first:
Order of values – MgrA DNA FP	S aureus helic
134	COc1ccc(NC(=O)COc2cccc3c2CCN(C)C3=O)cc1
    ·	1
132	CC(=O)N1CCc2cc(NC(=S)NCc3cccs3)ccc21
    -1.6	·
127	Cc1cc(C)n2nc(CC#N)c(C#N)c2n1
    0.0	·

The list is partial; the hit share may differ from the screen's.
